Screening results: PubChem BioAssay, SRMLSC
H5N1 CPE – MDCK cell protection from H5N1 avian flu | cytopathic effect, luminescence, 72 h; hits give high values; no value below 0 was filed and about half of the inactive calls have no number; reference of the scale not given here | inhibition, % at 50 µM | 0.07% of 96,000 active; in the data active means inhibition above about 25%
* hit, by the source's call; i = inactive. The list is partial, so the mix of outcomes need not match the whole.

| mol | H5N1 CPE |
| --- | --- |
| CC(c1ccccc1)N1CC(C(=O)NC2CCCC2)CC1=O (stereo unspecified) | i |
| COc1cc2nc(SCC(N)=O)n(CCC3=CCCCC3)c(=O)c2cc1OC | 0.3 |
| N#Cc1ccc(CSCC(=O)O)cc1 | 0.3 |
| O=c1c2ccccc2sn1-c1cc(S(=O)(=O)N2CCOCC2)ccc1N1CCOCC1 | 5.5 |
| CN(C)C(CNC(=O)C1CCCN(C(=O)c2ccc(Cl)cc2)C1)c1ccco1 (stereo unspecified) | 0.1 |
| Cc1ccc(/C=c2\sc3nc(-c4ccco4)nn3c2=O)o1 | 1.0 |
| CCOc1ccccc1N(C(=O)c1snc(C(N)=O)c1N)C(C(=O)NC1CCCC1)c1ccco1 (stereo unspecified) | i |
| COc1ccc(N(CC(=O)NC2CCCC2)C(=O)Cn2nnc(-c3ccc(C)cc3)n2)cc1 | i |
| CCCCNC(=O)C1COc2ccccc2O1 (stereo unspecified) | i |
| Cc1ccc(SC(=O)COc2ccccc2C)cc1 | i |
| COc1ccc(N(CC(=O)NCCSCc2c(F)cccc2Cl)S(C)(=O)=O)cc1OC | 0.4 |
| O=C(CC(c1ccco1)C1CCCCC1=O)c1ccco1 (stereo unspecified) | 0.7 |
| COc1cccc(/C=N/NC(=O)CO/N=C(\C)c2cccs2)c1OC | i |
| Cc1ccc(-c2nnc3sc(-c4ccncc4)nn23)cc1 | 6.1 |
| Cc1cc(C(C)(C)C)oc1C(=O)Nc1ccc(CC(=O)O)cc1 | i |
| CCC1(C)Cc2c(sc3nc(SC)n(Cc4ccccc4)c(=O)c23)CO1 (stereo unspecified) | i |
| O=C(O)C1CCCCC1C(=O)Nc1cc(Cl)ccc1Cl (stereo unspecified) | i |
| O=c1[nH]c(SCc2nc3c(cnn3-c3ccccc3)c(=O)[nH]2)nc2ccccc12 | 1.8 |
| Cc1ccc(OCc2nnc(NC(=O)Cc3cccs3)s2)cc1 | i |
| CCN(CC)C(=O)C(C)N(C#N)c1nc(NC(C)C)nc(NC(C)C)n1 (stereo unspecified) | 0.2 |
| CC(C)Oc1cccc(C(=O)NC(=S)Nc2cccc(C(F)(F)F)c2)c1 | i |
| CC(C)(C)c1[nH]nc2c1C(Cc1ccccc1)C(C#N)=C(N)O2 (stereo unspecified) | i |
| COc1ccc(C(=O)N2CCCCC2)cc1S(=O)(=O)Nc1ccccc1 | 0.3 |
| S=C(c1ccc2c(c1)OCO2)N1CCCCCC1 | 0.7 |
| CCCn1nc(C(=O)NCCN2CCOCC2)c2ccccc2c1=O | 0.2 |
| CC1(CC(=O)N/N=C/c2ccc(OCc3ccc(Cl)cc3Cl)cc2)OCCCO1 | 2.1 |
| Cc1ccc(S(=O)(=O)NC2=NCN(CCN3CCOCC3)CN2)cc1 | i |
| CCCC1C2CN(C(C)C)CC=C2C(C#N)=C(N)C1(C#N)C#N (stereo unspecified) | 0.3 |
| CCn1c(-c2cc(OC)c(OC)c(OC)c2)n[nH]c1=S | 0.6 |
| O=c1c(N2CCOCC2)nsnc1N1CCOCC1 | i |
| Cc1nn(C(=O)c2ccco2)c(C)c1Br | 1.4 |
| COc1cccc(CN(C(=O)c2ccco2)C(C(=O)NC2CCCC2)c2cccnc2)c1 (stereo unspecified) | 0.6 |
| O=C(CCSCCC(=O)NCc1ccccc1)NCc1ccccc1 | i |
| Cc1noc(C)c1S(=O)(=O)N1CCC(C(=O)NCCN2CCC(C)CC2)CC1 | 0.2 |
| COCc1cc(C)c2c(N)c(C#N)sc2n1 | i |
| O=C(CN1CCN(c2ccccn2)CC1)Nc1ccccc1 | i |
| CSc1ccccc1NC(=O)c1cc(-c2cccs2)on1 | i |
| CCC(C)[C@H](N)c1nnc(SCC(=O)c2ccc(Cl)cc2)o1 (stereo partly specified) | i |
| COc1ccc(N2C(=O)CSC23C(=O)Nc2ccccc23)cc1OC (stereo unspecified) | i |
| NC(=O)C1c2ccccc2CSc2ccccc21 (stereo unspecified) | 0.4 |
| CN=c1scc(-c2ccc(Br)cc2)n1C | i |
| COc1ccc(N(C(=O)c2ccco2)C(C(=O)NC2CCCC2)c2ccc(N(C)C)cc2)cc1OC (stereo unspecified) | 0.3 |
| CSc1ccc(CNc2ccc(C)c(C)c2)cc1 | i |
| COc1ccc(N2CCN(Cc3cc(=O)oc4cc(C)c(Cl)c(C)c34)CC2)cc1 | 0.9 |
| COc1ccc(C(=O)NC2CCN(C(=O)NC3CCCCC3)CC2)cc1 | 0.4 |

Among those listed so far, these contain a thiophene ring, fused or not.
| mol | H5N1 CPE |
| --- | --- |
| COc1cccc(/C=N/NC(=O)CO/N=C(\C)c2cccs2)c1OC | i |
| CCC1(C)Cc2c(sc3nc(SC)n(Cc4ccccc4)c(=O)c23)CO1 (stereo unspecified) | i |
| Cc1ccc(OCc2nnc(NC(=O)Cc3cccs3)s2)cc1 | i |
| COCc1cc(C)c2c(N)c(C#N)sc2n1 | i |
| CSc1ccccc1NC(=O)c1cc(-c2cccs2)on1 | i |

Other results.
| mol | H5N1 CPE |
| --- | --- |
| CCOC(=O)C1CCN(C(=O)CC(NS(=O)(=O)c2ccc(OC)cc2)C(C)C)CC1 (stereo unspecified) | 1.5 |
| CCn1c(C(=O)NCCCN2CCc3ccccc3C2)cc2sccc21 | i |
| Cc1ccnc(SCCn2c(N3CCN(c4ccccc4)CC3)nc3c2c(=O)[nH]c(=O)n3C)n1 | i |
| N#Cc1ccc(N2CCN(C(=O)c3cccc(F)c3)CC2)c(F)c1 | 0.4 |
| CCn1c(CSc2nc3ccccc3s2)nc2ccccc21 | 0.2 |
| COC(=O)c1nnn(-c2nonc2N)c1CN1CCc2ccccc21 | 1.6 |
| CCOc1ccc(C(=O)N2CCN=C2SC)cc1OCC | 0.1 |
| Nc1cc(C2CCCC2)nn1-c1ccccc1 | i |
| Cc1c(Cl)cccc1N=Cc1ccc([N+](=O)[O-])s1 | i |
| CCN(CC)c1nc(Nc2ccccc2)nc(Oc2ccc(=O)[nH]n2)n1 | 0.3 |
| O=C(CCc1ccc(S(=O)(=O)N2CCOCC2)cc1)N1CCN(Cc2ccc3c(c2)OCO3)CC1 | 0.9 |
| ClC(=C\c1ccccc1)/C=N/N1CCN(c2ccccn2)CC1 | i |
| COc1ccccc1-n1c(O)c(C=NCc2ccc3c(c2)OCO3)c(=O)[nH]c1=O | 0.2 |
| O=C(c1cc(-c2ccco2)on1)N1CCN(C(c2ccccc2)c2ccccc2)CC1 | i |
| Cc1ccc(C(C[N+](=O)[O-])n2nc(C)cc2C)cc1 (stereo unspecified) | 1.7 |

(listing goes on)
compound | H5N1 CPE
O=C(c1cccc(F)c1)N1CCN(C(=O)c2nn3cccnc3c2Cl)CC1 | 0.2
O=C(Cc1ccccc1)n1nc(-c2ccccc2)nc1NCc1ccco1 | 0.2
O=C(CSc1ncccn1)N1CCN(C(c2ccccc2)c2ccccc2)CC1 | 0.7
Cc1ccc(C)c(C2(O)CC(C)N(C)CC2C)c1 (stereo unspecified) | i
CC1(c2ccc(Cl)cc2Cl)OCC(Cn2ccnc2)O1 (stereo unspecified) | i
Oc1c(CN2CCc3ccccc3C2)cc(Cl)c2cccnc12 | i
O=C(NCCNC(=O)c1cc(OCC(F)(F)F)ccc1OCC(F)(F)F)Nc1ccc(OC(F)(F)F)cc1 | 0.5
COC(=O)c1oc2ccccc2c1-n1cccc1 | 0.7
CCOC(=O)C(=CNCC(=O)OC)C(=O)OCC | 1.5
CC(C)CCn1c(=O)c(C(=O)Nc2ccccc2S(N)(=O)=O)c(O)c2ccccc21 | i
CCOc1ccc(-n2c(Cc3cc(=O)[nH]c(=O)[nH]3)nnc2SCC(=O)NC2CCCC2)cc1 | i
COC(=O)C1=C(N)Oc2cc(C)n(CC3CCCO3)c(=O)c2C1c1ccccc1OC (stereo unspecified) | i
CCOC(=O)c1c(NC(=O)Cn2cc([N+](=O)[O-])cn2)sc2c1CCC2 | i
c1ccc(Cn2ccnc2-c2ccco2)cc1 | i
CC(=O)Nc1cccc(NC(=O)Nc2ccc(C(C)=O)cc2)c1 | 0.2
O=S(=O)(NC1CCCCC1)c1ccc(Br)cc1 | 1.4
C=CCN(CC=C)C(=S)NC(=O)c1ccc(-c2ccccc2)cc1 | 1.1
Cc1cc(C)nc(N2CCCC(C(=O)Nc3nc4ccc(S(C)(=O)=O)cc4s3)C2)n1 (stereo unspecified) | i
CC(=O)Nc1ccc(S(=O)(=O)Nc2nc3ccc(C)cc3s2)cc1 | 0.1
Oc1c(C=Nc2cccnc2)sc2ccccc12 | i
COc1ccccc1CNS(=O)(=O)c1ccc2[nH]cc(C(=O)O)c(=O)c2c1 | i
COC(=O)C(NC(=O)Nc1ccccc1OC)C(C)C (stereo unspecified) | i
CC(O)[C@H](NC(=O)C1(c2ccccc2)CCN(C(=O)OC(C)(C)C)CC1)C(=O)O (stereo partly specified) | 0.8
CC1CCCCN1CCNc1nc(=S)[nH]c2ccccc12 (stereo unspecified) | 0.8
CC1CCC(C(=O)NC(C(=O)N2CCC(N3CCCCC3)CC2)C(C)C)CC1 (stereo unspecified) | 0.0
CCN1CCc2c(C#N)c(NCc3ccccc3)nc(N(CC)CC)c2C1 | i
CCOc1ccc2nc(SCC(=O)N3CCCc4ccccc43)sc2c1 | 3.3
CC(C)(C)OC(=O)N1CCC(C(=O)N[C@H](Cc2ccccc2)C(=O)O)CC1 | 0.3
CCCc1ccc(-c2ccc(F)c(N)c2)nc1 | i
CC(=O)Nc1ccc(NC(=O)Oc2ccccc2)cc1 | 0.2
CCn1c(SCC(=O)NCc2ccc(C)cc2)nnc1-c1ccncc1 | 1.5
OCc1nn2c(c1Br)NC(c1ccccc1)CC2C(F)(F)F (stereo unspecified) | 1.8
O=C(Cc1cccs1)Nc1nc2c(s1)CCCC2 | 4.2
COC(=O)c1sccc1NC(=O)CSc1ccccc1NS(=O)(=O)c1ccc(Br)cc1 | 0.9
Cc1ccc(NC(=S)NCc2ccc3c(c2)OCO3)c(C)c1 | 0.7
COc1ccc(C)cc1S(=O)(=O)N(CC(=O)O)c1ccccc1 | 0.6
CCOP(=O)(c1ccccc1)C1(O)CCCCC1 (stereo unspecified) | i
Cc1cc(Br)c(S(=O)(=O)NCCN2CCOCC2)cc1C | 1.4
C/C(=N/NC(=O)c1cccs1)c1ccc(NC(=O)COc2ccc(Cl)cc2)cc1 | i
CCOc1ccc2nc(NCCNC(=O)CC)c(C#N)cc2c1 | 0.1
Cc1cc(=O)oc(C)c1C(=O)NCc1ccco1 | 0.8
CCOc1ccc2oc(-c3ccccc3)c(C(=O)N(C)C)c2c1 | 0.3
CSc1nc(Oc2ccc(C)cc2)cc(C(F)(F)F)n1 | i
N#Cc1c(N)nc2c(c1-c1ccccc1)CCCC2 | 0.7
COc1ccccc1NC(=O)N1CCCC1C(=O)NCc1ccccc1F (stereo unspecified) | 0.5
O=C(Cc1ccc(-n2c(=S)[nH]c3ccccc3c2=O)cc1)N1CCN(c2ccccc2)CC1 | i
Nc1ccc2oc(-c3cccc(Br)c3)nc2c1 | i
CCN(CC)C(=O)CSCC(=O)Nc1ccccc1 | i
Cc1nn(C)cc1CN(C)C(=O)c1nn2c(c1Cl)NC(c1cccs1)CC2C(F)(F)F (stereo unspecified) | 7.4
O=C(c1ccc2c(c1)OCO2)N1CCN(c2ccccc2F)CC1 | i

A portion taken from the entries so far:
compound | H5N1 CPE
CCC1(C)Cc2c(sc3nc(SC)n(Cc4ccccc4)c(=O)c23)CO1 (stereo unspecified) | i
O=C(O)C1CCCCC1C(=O)Nc1cc(Cl)ccc1Cl (stereo unspecified) | i
O=c1[nH]c(SCc2nc3c(cnn3-c3ccccc3)c(=O)[nH]2)nc2ccccc12 | 1.8
Cc1ccc(OCc2nnc(NC(=O)Cc3cccs3)s2)cc1 | i
CCN(CC)C(=O)C(C)N(C#N)c1nc(NC(C)C)nc(NC(C)C)n1 (stereo unspecified) | 0.2

Next structures
compound | H5N1 CPE
COC(=O)c1cccc(NC(=O)Cn2cnc3ccccc3c2=O)c1 | i
CC(C)c1ccc(N(C(=O)C(F)(F)F)C(C(=O)NC2CCCCC2)c2ccncc2)cc1 (stereo unspecified) | 0.4
CCOC(=O)c1ccc(NC(=O)CCc2nc(-c3ccc(C)cc3)no2)cc1 | i
Nc1nc2ccc([N+](=O)[O-])c(N)c2s1 | 0.4
CCOc1cc(C(=S)N2CCN(C)CC2)ccc1OCC(=O)N1CCOCC1 | i
COC(=O)c1cc(NC(=O)c2ccoc2C)cc(C(=O)OC)c1 | i
Nc1nonc1C(=Nc1ccccc1)NO | i
CCn1c(SCC(=O)c2ccc3c(c2)Cc2ccccc2-3)nnc1-c1ccc(N)cc1 | 0.4
Cc1ccc(C2C(C#N)=C(N)Oc3n[nH]c(C)c32)cc1 (stereo unspecified) | i
O=C(c1ccccc1Cl)N(C(=O)c1ccccc1Cl)c1nccc(-c2cccs2)n1 | 2.2
CC(C(=O)Nc1ccc(S(=O)(=O)N2CCOCC2)cc1)N(c1ccccc1)S(C)(=O)=O (stereo unspecified) | 0.3
COCCn1nnnc1C(C(C)C)N1CCOCC1 (stereo unspecified) | i
CSCC[C@H](NC(=O)OCc1ccccc1)C(=O)O | i
Nn1cnnc1SCC(=O)Nc1ccc(C2CCCCC2)cc1 | 0.3
COc1cc2c(cc1OC)C(c1ccc3c(c1)OCO3)CC(=O)N2 (stereo unspecified) | 0.1
CCOc1cc(C2C(C#N)=C(N)Oc3n[nH]c(-c4ccccc4)c32)ccc1O (stereo unspecified) | i
Cc1cc2c(C)ccc(C)c2nc1SCC(=O)c1cccs1 | 0.1
Cc1ccc(COc2ccsc2-c2n[nH]c(=S)n2C)cc1 | i
C/C=C/c1ccc(OCCCNC(C)CC)c(OC)c1 (stereo unspecified) | 1.3
Cc1ccc(Cc2nc(-c3ccccn3)no2)cc1 | i
CCOC(=O)Cc1csc(NC(=O)COc2ccc3ccccc3c2)n1 | i
Cc1ccccc1C(=O)N1CCCN(C(=O)c2ccccc2C)CC1 | i
O=C(O)Cc1ccc2[nH]c3ccc(CC(=O)O)cc3c2c1 | 0.6
O=CN1CCN(C2CC(=O)N(c3ccc(Br)cc3)C2=O)CC1 (stereo unspecified) | i
COc1ccccc1OCC(=O)N/N=C1/SCC(=O)N1Cc1ccccc1 | i
CN(c1ccccc1C(=O)N1CCOCC1)S(C)(=O)=O | i

Reformatted: entries from further up.
> CSCC[C@H](NC(=O)OCc1ccccc1)C(=O)O
- H5N1 CPE = i

> Nn1cnnc1SCC(=O)Nc1ccc(C2CCCCC2)cc1
- H5N1 CPE = 0.3
